# Bioassay records (PubChem BioAssay)
# BJeLR viability – MLPCN primary cell-based screen for lethality selective to Ras in HRASV12 cells | BJeLR (HRASV12) viability, CellTiter-Glo ATP luminescence, 48 h; reference of the scale not given here | inhibition, % (concentration not given with the values) | actives 0.17% (n = 300,000) | AID 1554, 2009;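 active means replicate mean above 50%; inconclusive means above 50% but judged a plate artefact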;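 further: 50 nL library stock added to about 25 µL; numbers are from one replicate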
# Mtb hypoxia inh – PubChem AID 1159583. M. tuberculosis hypoxia-regulated fluorescent reporter, fluorescence. fluorescence inhibition, % (test concentration not listed). actives 0.1% (n = 300,000);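 active means 35 to 45% if threefold the growth effect, above 45% if 1.5-fold the growth effect; inactive means the rest, general growth blockers included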;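 further: wells of about 50 µL received 100 nL stock; 0% = vehicle wells and 100% = reference inhibitor wells; whole bacteria with a GFP reporter of the hypoxia response; strong numbers were not always called active; many hits fall short of the cut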
# Sa ugtP lethal – growth inhibition of ugtP-null S. aureus, primary screen, RN4220 ugtP deletion, OD600; 16 h; some inactives read as strong as hits; AID 1259309, 2017; growth inhibition, % (no concentration beside the values); actives 0.54% (n = 330,000);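 active means z-score under -3 and OD600 up to 0.15 on both plates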;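 further: plate controls were untreated wells for no effect and antibiotic for full effect; wells of about 80 µL received 100 nL stock; the first replicate is given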
# PrP UTR inh – inhibition of PrP 5' UTR reporter expression; cell-based PrP 5' UTR mRNA reporter, plate reader; inhibition, % (concentration not given with the values); actives 0.35% (n = 340,000); AID 488862, 2010;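 active means every replicate at 50% or more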;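 further: 0 = median of the neutral control wells; tested in H4 reporter cells; numbers are from one replicate; inactives centre near -14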
# Autofluor counter – counter-screen for toxin protease inhibitors: compound fluorescence; fluorescence intensity (no concentration beside the values); actives 3.1% (n = 360,000); AID 624483; compound autofluorescence counterscreen, microsphere flow cytometry; active compounds read high;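 active means at least 3 SD above the mean of all compounds, about 16000 in these data; inconclusive means too few beads counted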;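 further: 100 nL of 1 mM stock went into each well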
# RN4220 kill – growth inhibition of S. aureus RN4220, primary screen, OD600 | actives 0.33% (n = 330,000) | 16 h | inhibition, % (concentration not given with the values);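 active means z-score of -3 or lower and OD600 up to 0.18 on both plates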;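 further: plate controls were untreated cells for no effect and reference antibiotic for full effect; stock transfer was 100 nL into about 80 µL; one replicate is shown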
# Mtb hypoxia inh growth – recorded beside Mtb hypoxia inh, whose call it bears; growth inhibition, %; measured here: M. tuberculosis growth (absorbance);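 0% = vehicle and 100% = reference antibiotic; read after six days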
# The depositor's hits bear a star; u = inconclusive; x = no result given.
no.	canonical_smiles	BJeLR viability	Mtb hypoxia inh	Mtb hypoxia inh growth	Sa ugtP lethal	PrP UTR inh	Autofluor counter	RN4220 kill
1	S=C1SCN(Cc2ccco2)CN1Cc1ccco1	-2	21	15	25	-4	x	11
2	O=c1cc(CSc2ccc(Cl)cc2)nc(-c2ccncc2)[nH]1	-5	6	1	-1	-5	4914	4.8
3	CCc1ccccc1NC(=S)N(CCCN1CCOCC1)Cc1ccccn1	-14	17	10	17	-8	2087	7.5
4	Cc1nc2ncnn2c(C)c1Cc1ccc(Cl)cc1	3	x	x	7	-11	4028	2.6
5	CCOC(=O)c1c(NC(C)=O)sc2c(OCCN(CC)CC)c(Br)ccc12	0	1	16	1	2	4280	0.8
6	O=C(O)CCn1c(-c2ccccn2)nc2ccccc21	-3	-9	-12	9	-27	3769	4.8
7	CCN1CCN(C(=S)Nc2ccc3nc(N4CCN(CC)CC4)cc(C)c3c2)CC1	-7	6	3	0	-7	8289	2.6
8	Cc1c(C(=O)OC2CCCCC2)[nH]c2c1C(=O)CC(C)(C)C2	2	x	x	-13	-35	4299	1.2
9	O=C(CCCCC(=O)NCCc1ccccc1)NCCc1ccccc1	-20	10	14	14	-34	3523	1.8
10	Cc1ccc(S(=O)(=O)/N=C(\Nc2cccc(C)c2)Nc2nc(C)cc(C)n2)cc1	-6	0	4	-2	-9	2590	2.3
11	COc1cccc(C(=O)COC(=O)CCCC(=O)NC2CCCCC2)c1	6	2	-8	2	-12	5324	-0.3
12	COc1c(C)cc(Br)cc1C(=O)Nc1ccccc1N1CCN(C(=O)c2ccccc2)CC1	-3	-1	4	-2	-39	4415	0.6
13	Cc1cc(-c2ccc(Br)s2)nc(-n2cccc2)n1	5	-1	-3	10	1	5110	3.3
14	COc1ccc2c(c1)c1ncn(CCN3CCNCC3)c(=O)c1n2C	-15	10	4	4	-1	22441*	1.3
15	CCCCCN(C(=O)CCC(=O)OCc1ccccc1C)c1c(N)n(CCCC)c(=O)[nH]c1=O	-6	11	2	7	-6	u	0.8
16	CC(=O)CCc1ccc(OC(=O)c2cccnc2)cc1	-11	x	x	2	-19	3819	0.0
17	O=C(NCC(=O)N(Cc1ccccc1)C(C(=O)NC1CCCC1)c1ccncc1)c1ccco1 (stereo not drawn)	-1	5	17	2	-13	3087	1.4
18	c1ccc(-c2cnnc(N3CCCCC3)n2)cc1	1	4	3	-20	-79	x	2.5
19	CC[n+]1ccc(/C=C2\Sc3ccccc3N2CCCS(=O)(=O)[O-])c2ccccc21	2	x	x	x	-81	4631	x
20	CC(OC(=O)C1CCCCC1)c1nc2ccccc2[nH]1 (stereo not drawn)	17	6	5	6	-12	2415	4.5

# 15 entries already listed, arranged by length of the SMILES, falling:
no.	canonical_smiles	BJeLR viability	Mtb hypoxia inh	Mtb hypoxia inh growth	Sa ugtP lethal	PrP UTR inh	Autofluor counter	RN4220 kill
15	CCCCCN(C(=O)CCC(=O)OCc1ccccc1C)c1c(N)n(CCCC)c(=O)[nH]c1=O	-6	11	2	7	-6	u	0.8
17	O=C(NCC(=O)N(Cc1ccccc1)C(C(=O)NC1CCCC1)c1ccncc1)c1ccco1 (stereo not drawn)	-1	5	17	2	-13	3087	1.4
19	CC[n+]1ccc(/C=C2\Sc3ccccc3N2CCCS(=O)(=O)[O-])c2ccccc21	2	x	x	x	-81	4631	x
7	CCN1CCN(C(=S)Nc2ccc3nc(N4CCN(CC)CC4)cc(C)c3c2)CC1	-7	6	3	0	-7	8289	2.6
5	CCOC(=O)c1c(NC(C)=O)sc2c(OCCN(CC)CC)c(Br)ccc12	0	1	16	1	2	4280	0.8
8	Cc1c(C(=O)OC2CCCCC2)[nH]c2c1C(=O)CC(C)(C)C2	2	x	x	-13	-35	4299	1.2
11	COc1cccc(C(=O)COC(=O)CCCC(=O)NC2CCCCC2)c1	6	2	-8	2	-12	5324	-0.3
14	COc1ccc2c(c1)c1ncn(CCN3CCNCC3)c(=O)c1n2C	-15	10	4	4	-1	22441*	1.3
3	CCc1ccccc1NC(=S)N(CCCN1CCOCC1)Cc1ccccn1	-14	17	10	17	-8	2087	7.5
9	O=C(CCCCC(=O)NCCc1ccccc1)NCCc1ccccc1	-20	10	14	14	-34	3523	1.8
20	CC(OC(=O)C1CCCCC1)c1nc2ccccc2[nH]1 (stereo not drawn)	17	6	5	6	-12	2415	4.5
13	Cc1cc(-c2ccc(Br)s2)nc(-n2cccc2)n1	5	-1	-3	10	1	5110	3.3
16	CC(=O)CCc1ccc(OC(=O)c2cccnc2)cc1	-11	x	x	2	-19	3819	0.0
4	Cc1nc2ncnn2c(C)c1Cc1ccc(Cl)cc1	3	x	x	7	-11	4028	2.6
18	c1ccc(-c2cnnc(N3CCCCC3)n2)cc1	1	4	3	-20	-79	x	2.5

# Continuation.
no.	canonical_smiles	BJeLR viability	Mtb hypoxia inh	Mtb hypoxia inh growth	Sa ugtP lethal	PrP UTR inh	Autofluor counter	RN4220 kill
21	Cn1c(SCc2ccc(Cl)cc2)nnc1-c1ccc2nonc2c1	13	11	4	-5	-15	3745	0.7
22	CCN(c1ccc(OC)cc1)S(=O)(=O)c1nnc(NC(=O)c2ccccc2Cl)s1	0	2	-4	1	-26	3520	-4.1
23	COC(=O)[C@@]1(Cc2ccccc2)C=CC(C)N1C(C)=O (stereo partly drawn)	x	11	12	-1	x	x	5.1
24	CC(=O)OC(C(=O)n1nc(C)cc1C)c1ccccc1 (stereo not drawn)	-2	3	0	3	-30	15754	4.0
25	O=C(NCc1cccc(OC(F)(F)F)c1)C1CCC(=O)N(Cc2cccc(F)c2)C1 (stereo not drawn)	-6	8	0	5	-15	5052	-0.4
26	COc1ccc(-c2cc(=Nc3nc(-c4ccccc4)c(C)s3)c3ccccc3o2)cc1O	x	7	13	66	x	x	33
27	O=C(NN=Cc1cccnc1)c1cc(-c2ccc(Cl)cc2)nc2ccccc12	x	6	2	22	x	x	-13
28	COc1ccc(-c2ncncc2-c2csc(C)n2)c(O)c1	5	7	6	3	-5	3325	1.0
29	O=C(CCNC(=O)N1CC(=O)Nc2ccccc21)NCCc1cccc(F)c1	7	10	-1	9	-8	5466	4.6
30	COc1ccc(N2CCCC2)c(NC(=O)c2ccc([N+](=O)[O-])o2)c1	-2	22	34	11	-42	6042	7.0
31	CCOC(=O)c1[nH]c(C)c(CN(CCc2ccccc2)S(C)(=O)=O)c1C	-6	x	x	4	-15	7214	-0.3
32	CCCCn1c(=O)[nH]c(=O)c2c1nc(-c1ccc([N+](=O)[O-])cc1)n2CC	6	4	12	1	1	3671	0.2
33	O=C(COc1ccc2ccc(=O)oc2c1)NCCc1c[nH]c2ccc(F)cc12	4	6	-13	5	-16	5539	3.2
34	NC(=O)c1nsc(C(=O)N(c2ccccc2)C(C(=O)NCc2ccc(F)cc2)c2ccco2)c1N (stereo not drawn)	-1	15	-1	14	-19	2998	0.9
35	Cc1ccc(/C=[N+](/C)[O-])cc1	2	14	-3	13	-15	3460	7.6
36	CCOc1ccccc1CNC(=O)c1ccc(NC(=O)C2=CSCCO2)cc1	1	-7	11	1	-13	5132	3.6
37	COc1ccc(C(=O)NNC(=O)c2cccs2)cc1S(=O)(=O)N1CCOCC1	x	0	7	2	2	3754	3.7
38	O=C(Nc1ccccc1C(F)(F)F)C1CCCC1	12	11	-3	0	-18	3247	0.9
39	Cc1ccc(OC(C)C(=O)Nc2ccc(S(=O)(=O)Nc3nccs3)cc2)cc1 (stereo not drawn)	11	8	13	-1	-3	6296	17
40	O=C(Nc1ccccc1CC[N+](=O)[O-])N1CCN(c2ccccc2)CC1	12	10	4	6	-11	3551	6.4
41	CCC(C)NC(=S)Nc1ccccc1 (stereo not drawn)	9	6	8	10	-28	4126	1.2
42	Cc1cccc(-c2nc(CSc3nc4c(c(=O)[nH]3)CCC4)c(C)o2)c1	-1	2	6	2	2	4401	6.5
43	COc1ccc(OC)c(N(CC(=O)Nc2ccccc2)S(=O)(=O)c2ccccc2)c1	8	0	1	3	-15	4660	3.8
44	O=C(COC(=O)C1C2CC3OC(=O)C1C3C2)Nc1ccc(Br)cc1 (stereo not drawn)	7	-3	-3	5	-41	5615	7.2
45	CCC(=O)N1CCCn2c1nc1ccccc12	3	3	-3	-3	-4	2584	3.5
46	CCOC(=O)c1cc2sc(C)cc2n1CC(=O)N1CCc2ccccc21	1	0	2	4	-25	10809	3.2
47	COc1ccc(C(=O)NC(=S)Nc2ccc(N3CCN(C(C)=O)CC3)cc2)cc1[N+](=O)[O-]	3	14	10	99*	-14	3717	3.9
48	Cc1cc(C(=O)N2CCN(C(=O)C3CCCO3)CC2)no1 (stereo not drawn)	5	9	2	8	x	9608	4.4
49	COc1cc(OC)c(C(=O)OCCCOC(=O)c2cc(OC)c(OC)cc2OC)cc1OC	-1	-1	-5	-1	-26	5213	-0.5
50	COc1ccc2c(c1)CC(C1(O)C(=O)Nc3ccccc31)C2=O (stereo not drawn)	1	7	10	2	-47	5662	4.8
51	COc1ccc(Cl)c(Cn2c(NCc3ccco3)nc3c2c(=O)n(C)c(=O)n3C)c1	x	x	x	-4	-8	3776	-0.9
52	COc1cc(OC)cc(C(=O)Nn2cnnc2)c1	-2	11	2	14	-32	3694	0.7
53	CC(Cl)(Cl)C(=NP(=S)(N1CCOCC1)N1CCOCC1)N1CCOCC1	x	9	9	5	x	x	6.1
54	Cc1cccc(NS(=O)(=O)c2ccc(C)c(C(=O)N3CCN(C(=O)c4ccco4)CC3)c2)c1	x	-4	5	4	-13	u	2.9
55	CC(C)(C)NC(=O)CSc1nsc(SCC(=O)NC(C)(C)C)c1C#N	-12	1	-2	3	-18	17119*	1.5
56	COCC(CN1CCN(C2=NS(=O)(=O)c3ccccc32)CC1)OC(=O)c1ccccc1 (stereo not drawn)	3	11	5	2	-8	3632	-2.3
57	COC(=O)c1ccc(NC(=O)COC(=O)CCC2CCCC2)cc1	x	9	5	3	-15	x	2.5
58	O=C(CSc1nccn1Cc1ccco1)Nc1ccccc1C(F)(F)F	4	4	16	12	-22	6321	5.3
